HIV Env fusion: HIV envelope-mediated fusion inhibition; HeLa-JRFL Env/CEM21 cell fusion, luciferase; inhibition, % at 12.3 µM; 360,000 compounds, 1.1% hits; AID 651610;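 active means mean replicate inhibition score of at least 50 and every replicate individually at or above 50; inconclusive means only one of the two criteria met; inactive means mean below 50 and not all replicates reaching 50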;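 further: 0% = plate neutral controls and 100% = maraviroc near 300 nM; one replicate is shown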
* hit, by the source's call; ? = inconclusive; [ ] = remark or other dose.

SMILES | HIV Env fusion
C[C@@H]1CN([C@@H](C)CO)C(=O)c2cc(NC(=O)Nc3ccccc3)ccc2O[C@@H](C)CCCCO[C@H]1CN(C)Cc1ccncc1 | 3[16.7 µM]
CC(C)NC(=O)Nc1ccc2c(c1)C(=O)N([C@@H](C)CO)C[C@@H](C)[C@H](CN(C)C)O2 | 12[16.7 µM]
CN(C)C(=O)C[C@H]1C[C@@H]2c3cc(NC(=O)Nc4ccc(F)cc4)ccc3O[C@@H]2[C@H](CO)O1 | -10[16.7 µM]
CO[C@@H]1CN(C)C(=O)c2ccc(NC(=O)Nc3cc(Cl)cc(Cl)c3)cc2OC[C@H](C)NC[C@@H]1C | -5[16.7 µM]
C[C@H](CO)N1C[C@H](C)[C@@H](CN(C)Cc2ccncc2)OCc2ccccc2-c2ccccc2C1=O | -2[16.7 µM]
CS(=O)(=O)Nc1ccc2c(c1)[C@@H]1C[C@@H](CC(=O)NC3CCCC3)O[C@H](CO)[C@@H]1O2 | -9[16.7 µM]
COC(=O)C1=C(C)N(Cc2cccc(C(F)(F)F)c2)C(=NCc2cc(OC)c(OC)c(OC)c2)NC1c1cccc(C(F)(F)F)c1 (stereo not given) | 13
COC(=O)[C@]12CCCCC=C1N(CCC1=CCCCC1)C(=O)[C@H](CC(=O)NCc1ccc(C)o1)C2 | 27
CO[C@H]1CN(C)C(=O)c2cc(NC(=O)c3ccc(F)cc3)ccc2OC[C@H](C)NC[C@@H]1C | 10[16.7 µM]
O=C(C[C@H]1CC[C@H]2[C@@H](COC[C@H](O)CN2S(=O)(=O)c2ccccc2)O1)NCc1ccc(-c2ccccc2)cc1 | 5[16.7 µM]

Compounds above with fluorine, in the order listed:
SMILES | HIV Env fusion
CN(C)C(=O)C[C@H]1C[C@@H]2c3cc(NC(=O)Nc4ccc(F)cc4)ccc3O[C@@H]2[C@H](CO)O1 | -10[16.7 µM]
COC(=O)C1=C(C)N(Cc2cccc(C(F)(F)F)c2)C(=NCc2cc(OC)c(OC)c(OC)c2)NC1c1cccc(C(F)(F)F)c1 (stereo not given) | 13
CO[C@H]1CN(C)C(=O)c2cc(NC(=O)c3ccc(F)cc3)ccc2OC[C@H](C)NC[C@@H]1C | 10[16.7 µM]

Further compounds:
SMILES | HIV Env fusion
C[C@@H](C(=O)N(C)C[C@@H]1OCc2ccccc2-c2ccccc2C(=O)N([C@@H](C)CO)C[C@@H]1C)c1ccccc1 | 11[16.7 µM]
CN(C)CC(=O)Nc1ccc2c(c1)[C@@H]1C[C@@H](CC(=O)NCc3cc(F)ccc3F)O[C@@H](CO)[C@@H]1O2 | -4[16.7 µM]
CO[C@H]1CN(C)C(=O)c2cc(NC(=O)C3CCOCC3)ccc2OC[C@H](C)N(CC2CC2)C[C@H]1C | -17[16.7 µM]
CNC[C@H]1OCCCC[C@H](C)Oc2ccc(NC(=O)Nc3ccc(F)cc3)cc2C(=O)N([C@@H](C)CO)C[C@@H]1C | 0[16.7 µM]
COC(=O)C1=C(C(=O)OC)C2C=C(C(C)C)C1C(=O)C2(C)O (stereo not given) | -17
CO[C@@H]1CN(C)C(=O)c2cc(NC(=O)C3CCC3)ccc2OC[C@H](C)N(C)C[C@H]1C | 0[16.7 µM]
COc1ccc(C2CC(=O)C(c3cccc(F)c3)=CN2Cc2ccccc2)cc1 (stereo not given) | -17
C[C@@H]1CN([C@H](C)CO)C(=O)Cc2cc(N(C)C)ccc2O[C@H]1CN(C)Cc1ccc(Cl)c(Cl)c1 | 33[16.7 µM]
COc1ccc(CN2CC3(CN(S(=O)(=O)c4ccc(C)cc4)C3)c3c([nH]c4cc(OC)ccc34)[C@H]2CO)cc1 | 23[16.7 µM]
COc1ccc(NC(=O)Nc2ccc3c(c2)C(=O)N([C@@H](C)CO)C[C@H](C)[C@@H](CN(C)CC2CC2)OCCCC[C@H](C)O3)cc1 | 17[16.7 µM]
c1ccc(CC(Nc2cccnc2)c2ccccc2)cc1 (stereo not given) | 2
CO[C@H]1CN(C)C(=O)c2cc(NC(=O)Nc3cccc(F)c3)ccc2OC[C@H](C)N(C(=O)C2CC2)C[C@H]1C | 1[16.7 µM]
O=C(C[C@H]1CC[C@@H]2[C@H](COC[C@@H](O)CN2Cc2cc(F)ccc2F)O1)N[C@H]1CCN(Cc2ccccc2)C1 | 5[16.7 µM]
COCc1cc(N2CCN(C(=O)OC(C)(C)C)C[C@H]2C)ccc1N1CCS(=O)(=O)CC1 | 59*
COc1ccccc1NC(=O)N[C@H]1CC[C@@H](CCNS(=O)(=O)c2ccccc2)O[C@H]1CO | -8[16.7 µM]
COC(=O)[C@]12C[C@H](CC(=O)N3CCCCC3)C(=O)N(CCC3=CCCCC3)C1=C[C@H](COCc1ccccc1)O[C@@H]2C | 10
CO[C@H](CN(C)C(=O)C1CC1)[C@H](C)CN(C(=O)Nc1ccc(C(F)(F)F)cc1)[C@@H](C)CO | 56*[16.7 µM]
Cc1cc(NC(=O)Cc2cn(C)c3ccccc23)ccc1Oc1cccnc1 | -10
CCCN1CCCCC(NC(=O)c2ccc3ccccc3c2)C1=O (stereo not given) | -8
COc1ccc(NC(=O)N(C)C[C@H]2Oc3ccc(NS(=O)(=O)c4ccc(C)cc4)cc3CC(=O)N([C@@H](C)CO)C[C@@H]2C)cc1 | -9[16.7 µM]
O=C(C[C@@H]1CC[C@@H]2NC[C@@H](O)COC[C@H]2O1)Nc1nccs1 | -4[16.7 µM]
C[C@H](NC(=O)C[C@@H]1C=C[C@@H](NC(=O)Nc2ccc3c(c2)OCO3)[C@H](CO)O1)c1ccccc1 | 10[16.7 µM]
O=C(C[C@@H]1C[C@H]2c3cc(NC(=O)c4ccc5c(c4)OCO5)ccc3O[C@H]2[C@@H](CO)O1)NCc1cccnc1 | -10[16.7 µM]
CO[C@@H]1CN(C)C(=O)c2cc(NC(=O)Cc3ccccc3)ccc2OC[C@@H](C)N(C(C)=O)C[C@@H]1C | 28[16.7 µM]
CC=Cc1ccc2n(c1=O)C[C@H]1[C@H](CO)[C@@H](C(=O)NCC3CC3)[C@@H]2N1Cc1ccccc1OC (mixture of isomers) | 7[16.7 µM]
Cc1ccc(C(=O)N2CCC[C@@H]2C(=O)N2CCC[C@H]2C(=O)NCc2ccccc2)cc1C | 30
O=C(N[C@H]1CC[C@@H](CCNC(=O)c2cnccn2)O[C@H]1CO)c1ccc2c(c1)OCO2 | -6[16.7 µM]
CN1C(=O)c2cc(NC(=O)Nc3ccc(Cl)cc3)ccc2OC[C@@H]2O[C@H](CC(=O)NCCN3CCCCC3)CC[C@@H]21 | -18[16.7 µM]
CCNC(=O)c1cc2c(c(-c3cccc(-c4cccc(OC)c4)c3)n1)[C@H](CCO)N([S@@](=O)C(C)(C)C)C2 | -111[16.7 µM]
Cc1ccc2c(=O)n3c(nc2c1)C(CC(C)C)NC(=O)c1ccc(Cl)cc1-3 (stereo not given) | -30

Quoted at random: 3 entries already listed, in no set order.
SMILES | HIV Env fusion
Cc1ccc(C(=O)N2CCC[C@@H]2C(=O)N2CCC[C@H]2C(=O)NCc2ccccc2)cc1C | 30
CC=Cc1ccc2n(c1=O)C[C@H]1[C@H](CO)[C@@H](C(=O)NCC3CC3)[C@@H]2N1Cc1ccccc1OC (mixture of isomers) | 7[16.7 µM]
O=C(C[C@@H]1CC[C@@H]2NC[C@@H](O)COC[C@H]2O1)Nc1nccs1 | -4[16.7 µM]

The results go on:
SMILES | HIV Env fusion
CC=Cc1ccc2n(c1=O)C[C@H]1N[C@@H]2[C@@H](C(=O)NCc2ccc3c(c2)OCO3)[C@@H]1CO (mixture of isomers) | -2[16.7 µM]
CC(C)C[C@H]1COCc2cn(nn2)CC[C@H](Cc2ccccc2)C(=O)N1 | -6[16.7 µM]
O=C(C[C@H]1CC[C@@H]2[C@H](COC[C@@H](O)CN2S(=O)(=O)c2cccc(Cl)c2)O1)N1CCCCC1 | 3[16.7 µM]
CCN1[C@@H]2c3ccc(-c4cccc(C(=O)N(C)C)c4)c(=O)n3C[C@@H]2[C@@H](CO)[C@@H]1C(=O)N(C)C | -15[16.7 µM]
CO[C@H]1CN(C)C(=O)c2cc(NC(=O)C3CCC3)ccc2OC[C@H](C)N(Cc2ccccn2)C[C@@H]1C | -16[16.7 µM]
COC(=O)c1cc2c(c3c4cc(C)ccc4n(S(=O)(=O)c4ccc(C)cc4)c13)C(=O)N(Cc1ccccc1OC)C2 | -21
C[C@@H]1CN([C@@H](C)CO)C(=O)c2cc(NC(=O)c3ccncc3)ccc2O[C@@H](C)CCCCO[C@@H]1CN(C)Cc1ccncc1 | -3[16.7 µM]
Cc1ccc(S(=O)(=O)Nc2ccc3c(c2)C(=O)N([C@H](C)CO)C[C@H](C)[C@@H](CN(C)C)OCCCC[C@H](C)O3)cc1 | 0[16.7 µM]
COCC(=O)Nc1ccc2c(c1)OC[C@H](C)N(C(=O)CC1CC1)C[C@H](C)[C@H](OC)CN(C)C2=O | -6[16.7 µM]
O=C(O)C[C@@H]1C[C@H]2c3cc(NC(=O)Cc4ccncc4)ccc3O[C@H]2[C@H](CO)O1 | -7[16.7 µM]

Quoted from the listing:
Reading of `CC=Cc1ccc2n(c1=O)C[C@H]1N[C@@H]2[C@@H](C(=O)NCc2ccc3c(c2)OCO3)[C@@H]1CO` (mixture of isomers) under HIV Env fusion: -2[16.7 µM]
Reading of `O=C(O)C[C@@H]1C[C@H]2c3cc(NC(=O)Cc4ccncc4)ccc3O[C@H]2[C@H](CO)O1` under HIV Env fusion: -7[16.7 µM]

More entries:
SMILES | HIV Env fusion
C[C@H](CO)N1C[C@H](C)[C@@H](CN(C)C(=O)Nc2cccc(C(F)(F)F)c2)OCc2ccccc2-c2ccccc2C1=O | 58*[16.7 µM]
CO[C@@H]1CN(C)C(=O)c2ccc(NS(=O)(=O)c3ccc(Cl)cc3)cc2OC[C@@H](C)N(C(=O)Cc2cccnc2)C[C@H]1C | -7[16.7 µM]
Cc1ccc(S(=O)(=O)N(C)C[C@H]2Oc3c(NS(=O)(=O)c4cn(C)cn4)cccc3C(=O)N([C@@H](C)CO)C[C@@H]2C)cc1 | 19[16.7 µM]
C[C@H]1CN([C@@H](C)CO)C(=O)Cc2cc(NC(=O)C3CC3)ccc2O[C@H]1CN(C)C | -8[16.7 µM]
O=C(NC1CCCC1)N1CC(=O)N2[C@@H](CO)[C@H](c3ccc(-c4cccc(F)c4)cc3)[C@@H]2C1 | 25[16.7 µM]
CNC(=O)C[C@@H]1CC[C@@H]2[C@H](COC[C@H](O)CN2S(=O)(=O)c2cccc(Cl)c2)O1 | -1[16.7 µM]
CO[C@@H](CN(C)Cc1cc(F)ccc1F)[C@H](C)CN([C@H](C)CO)S(=O)(=O)c1ccc(F)cc1 | 13[16.7 µM]
CN1C(=O)c2cc(NC(=O)Cc3cccs3)ccc2OC[C@H]2O[C@@H](CC(=O)NCc3ccc(-c4ccccc4)cc3)CC[C@@H]21 | ?
C[C@H]1CN([C@@H](C)CO)C(=O)Cc2cc(NC(=O)Nc3ccc(F)cc3)ccc2O[C@H]1CN(C)S(=O)(=O)c1cn(C)cn1 | -10[16.7 µM]
C[C@@H]1CN([C@H](C)CO)C(=O)c2c(c3ccccc3n2C)-c2ccccc2CO[C@H]1CN(C)C(=O)Nc1ccc2c(c1)OCO2 | -28[16.7 µM]
COc1ccc(C2CC(=O)C(c3ccc(C#N)cc3)=CN2Cc2ccccc2)cc1 (stereo not given) | -10
CO[C@H]1CC[C@H]2CCN(C)C(=O)[C@H](C)[C@@H](OC)CN(C)C(=O)c3cc(C#N)ccc3OC[C@@H]1O2 | -1[16.7 µM]
COc1ccc(CNC(=O)c2cc3c(c(-c4cccc(-c5ccc(C#N)cc5)c4)n2)[C@H](CCO)N([S@@](=O)C(C)(C)C)C3)cc1 | 13[16.7 µM]
COC(=O)[C@]12C[C@H](CC(=O)NCc3cccc4ccccc34)C(=O)N(CCC3=CCCCC3)C1=C[C@H](C(C)(C)C)O[C@@H]2C | 87*
CO[C@@H]1CN(C)C(=O)c2ccc(NC(=O)c3cccc(F)c3)cc2OC[C@H](C)N(CC2CC2)C[C@H]1C | 5[16.7 µM]
CO[C@H]1CN(C)C(=O)c2cc(NS(=O)(=O)CC(F)(F)F)ccc2OC[C@@H](C)N(CC2CCCCC2)C[C@H]1C | 15[16.7 µM]
O=C(C[C@H]1C=C[C@@H](NC(=O)Cc2cccnc2)[C@@H](CO)O1)Nc1ccccc1 | 11[16.7 µM]
CC(C)NC(=O)N(C)C[C@@H]1OCCCC[C@@H](C)Oc2ccc(NC(=O)Cc3ccccc3)cc2C(=O)N([C@H](C)CO)C[C@H]1C | -21[16.7 µM]
C[C@@H]1CN([C@H](C)CO)C(=O)c2cc(NC(=O)CCCN(C)C)ccc2O[C@H]1CN(C)Cc1ccc2c(c1)OCO2 | -1[16.7 µM]
CC1(C)OC(C)(C)C(=N/O)/C1=N\N | -1
C=CCN1C(=O)c2n[nH]c(C(C)C)c2C1c1ccccc1 (stereo not given) | -1
COc1ccccc1CN(C)C[C@@H]1OCc2ccccc2-c2ccccc2C(=O)N([C@H](C)CO)C[C@@H]1C | -11[16.7 µM]
C[C@@H]1CN([C@H](C)CO)C(=O)c2cc(N(C)C)ccc2O[C@@H](C)CCCCO[C@H]1CN(C)C(=O)Nc1ccc(C(F)(F)F)cc1 | 37[16.7 µM]
CN1CCN(C(=O)[C@H]2[C@H](CO)[C@H]3Cn4c(cccc4=O)[C@@H]2N3Cc2ccncc2)CC1 | 10[16.7 µM]
COc1ccccc1CNC(=O)C[C@H]1C[C@H]2c3cc(NS(=O)(=O)c4ccc(F)cc4)ccc3O[C@H]2[C@@H](CO)O1 | -12[16.7 µM]
C[C@H](CO)N1C[C@H](C)[C@H](CN(C)C(=O)Nc2cccc3ccccc23)Oc2ccc(NC(=O)c3ccncc3)cc2C1=O | 20[16.7 µM]
C[C@@H]1CCCCO[C@@H](CN(C)C)[C@@H](C)CN([C@H](C)CO)C(=O)c2cc(NS(=O)(=O)c3ccc(Cl)cc3)ccc2O1 | 2[16.7 µM]
CC(C)(C)[S@@](=O)N1Cc2cc(C(=O)NC3CCC3)nc(-c3cccc(-c4ccccc4F)c3)c2[C@H]1CCO | 0[16.7 µM]

An excerpt; the hit share may differ from the screen's.
